2A StopGo – High Throughput Screening for Foot and Mouth Disease Virus Antivirals. 410,000 tested, 1.2% active. Potency, µM (titrated, usually from 57.9 µM), for the others: top-dose signal change, negative = less light. human cells with a luciferase reporter of 2A StopGo recoding; control for the full effect not named in the record; active = well fitted falling curve with a large enough effect; inconclusive = small, poorly fitted or top-dose-only effect; inactive = no such curve, though single readings can be large or run the other way; tested in HEK293T cells; also: % is scaled to controls: 0 for no effect and ±100 for the full control effect; nearly all actives have a fitted effect of over 45% in size; luciferase light after 4 h
RE007 growth inh – qHTS Assay for Inhibitors of the HIV-1 protein Vpr; 360,000 tested, 0.21% active; Potency, µM (highest dose often 92.2 µM), inactives show top-dose activity change, negative = less growth; S. pombe RE007 Vpr strain, BacTiter-Glo ATP luminescence, 24 h; control for the full effect not named in the record; active = well fitted falling curve with a large enough effect; inconclusive = small, poorly fitted or top-dose-only effect; inactive = no such curve, though single readings can be large or run the other way;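 also: % is scaled to controls: 0 for no effect and ±100 for the full control effect; nearly all actives have a fitted effect of over 50% in size; the assay follows cell death caused by Vpr and the record does not say whether a fall means rescue or toxicity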
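Fission yeast strain RE007, carrying one chromosomally integrated HIV-1 vpr copy, was seeded at OD 0.01 in PMG+AL medium with 23 nL pinned compound. After 24 h at 30 °C and 99% humidity, viability was read by BacTiter-Glo luminescence.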
SARS PLpro yeast – qHTS of Yeast-based Assay for SARS-CoV PLP; S. cerevisiae expressing SARS-CoV PLpro, growth rescue; control for the full effect not named in the record; Potency, µM (doses to about 32.9 µM), inactives show top-dose activity, positive = growth rescue; 330,000 tested, 0.19% active; active means well fitted rising curve with a large enough effect; inconclusive means small, poorly fitted or top-dose-only effect; inactive means no such curve, though single readings can be large or run the other way; also: 0% is about no effect; nearly all actives have a fitted effect of over 55% in size; growth read by luminescence after 48 h
Marburg entry inh – qHTS for inhibitors of binding or entry into cells for Marburg Virus. Marburg virus pseudotyped entry inhibition, cell reporter; control for the full effect not named in the record; about a third of the inactives were read at about 46 µM. Potency, µM (series often up to 37.8 µM), for inactives: top-dose activity change, negative = inhibition, most hits filed as inhibitors. 300,000 tested, 1.8% active. AID 540276, 2011; active = well fitted inhibition curve with a large enough effect; inconclusive = small, poorly fitted or top-dose-only effect, or effect the other way; inactive = flat fitted curve, though single readings scatter; tested in HEK293 cells; about a fifth of its hits are not listed in these tables; also: % is scaled to controls: 0 for no effect and ±100 for the full control effect; luciferase read-out
Cruzain inh Det – qHTS Assay for Promiscuous and Specific Inhibitors of Cruzain (with detergent) | Cruzipain (Trypanosoma cruzi), P25779 | purified cruzain, Z-FR-AMC fluorescence, 0.01% Triton | Potency, µM, without a hit: max response, negative = inhibition, most hits filed as inhibitors | 200,000 tested, 0.43% active | AID 1478, 2009;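 also: plate controls were neutral wells for no effect and buffer without enzyme for full effect; nearly all actives have a fitted effect of over 40% in size; top concentration of the series not given in the record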
Target sequence (P25779 123-467 limits assumed): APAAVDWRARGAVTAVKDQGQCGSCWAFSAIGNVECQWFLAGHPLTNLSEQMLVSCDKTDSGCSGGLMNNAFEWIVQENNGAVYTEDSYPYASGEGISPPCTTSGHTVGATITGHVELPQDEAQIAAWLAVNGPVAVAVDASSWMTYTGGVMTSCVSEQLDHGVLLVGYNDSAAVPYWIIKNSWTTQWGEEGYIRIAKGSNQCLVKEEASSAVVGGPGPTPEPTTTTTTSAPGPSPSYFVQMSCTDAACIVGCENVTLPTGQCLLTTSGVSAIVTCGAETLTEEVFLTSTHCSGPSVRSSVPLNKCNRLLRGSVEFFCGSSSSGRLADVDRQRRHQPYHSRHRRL
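Z-FR-AMC hydrolysis (2 uM substrate) by cruzain (1.5 nM) monitored kinetically at ex 360/em 450 nm after 15 min room-temperature compound exposure; 0.01% Triton X-100, pH 5.5, 5 mM DTT.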
Cruzain noTriton – qHTS Assay for Promiscuous and Specific Inhibitors of Cruzain (without detergent). Potency, µM, inactives show max response, negative = inhibition, usual class: inhibitors. AID 1476, 2009. purified cruzain, Z-FR-AMC fluorescence, no detergent. 200,000 tested, 2.3% active;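 also: plate controls were enzyme without inhibitor for no effect and buffer without enzyme for full effect; nearly all actives have a fitted effect of over 40% in size; top concentration of the series not given in the record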
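Detergent-free condition (0.00005% Triton X-100) in acetate buffer pH 5.5 with DTT. 1.5 nM enzyme and compound were pre-mixed 15 min, then 2 uM Z-FR-AMC substrate added; reaction progress from fluorescence change between first and third reads (60 s).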
Lassa entry inh – qHTS for Inhibitors of binding or entry into cells for Lassa Virus | Potency, µM (highest dose often 37.9 µM), for the others: at the top dose activity change, negative = inhibition, most hits filed as inhibitors | AID 540256, 2011 | 300,000 tested, 1.2% active | Lassa virus pseudotype entry inhibition, cell reporter; control for the full effect not named in the record; active means well fitted inhibition curve with a large enough effect; inconclusive means small, poorly fitted or top-dose-only effect, or effect the other way; inactive means flat fitted curve, though single readings scatter; tested in HEK293 cells; also: % is scaled to controls: 0 for no effect and ±100 for the full control effect; nearly all actives have a fitted effect of over 50% in size; luciferase read-out
NS1 inh – qHTS Assay for Inhibitors of Influenza NS1 Protein Function. S. cerevisiae slowed by influenza A NS1, growth recovery by OD600. Potency, µM (highest dose often 46.1 µM), without a hit: at the top dose activity, positive = more growth. 270,000 tested, 0.4% active. AID 2326, 2010; active means well fitted rising curve with a large enough effect; inconclusive means small, poorly fitted or top-dose-only effect; inactive means no such curve, though single readings can be large or run the other way; also: nearly all actives have a fitted effect of over 50% in size
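Growth recovery, yeast-based: influenza A NS1 expressed in S. cerevisiae causes slow growth, and suppressors are detected by OD600. The parent strain without NS1 is used as positive control.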
* hit, by the source's call; ? = inconclusive; · = not tested or not shown; & = joins results of further samples; [ ] = dose if it differs, or a comment. Unless noted, calls follow the shape of the dose curve; as a rule, active = well fitted curve in the direction sought with a large enough effect; inconclusive = small, poorly fitted or top-dose-only effect, or another doubt; inactive = no such curve, though single readings can be large; an effect the other way counts as inactive or inconclusive. Potency is read from the fitted curve at half-maximal effect.

Results follow in this order: 2A StopGo | RE007 growth inh | SARS PLpro yeast | Marburg entry inh | Cruzain inh Det | Cruzain noTriton | Lassa entry inh | NS1 inh
CCOc1cc(C2c3c(n[nH]c3C)C(=O)N2c2ccc(Br)cc2)ccc1O (stereo unspecified)
→ -1% | -9% | 6% | 1% | -1.5% | 9% | 1% | 4%
C1CCc2nnnn2CC1
→ -7%&-1% | · | · | ? | 3.6%&2.6%&-3.0% | 3%&15%&-11% | 10% | -6%
COc1cc(CN2CCN(Cc3ccccc3C(F)(F)F)CC2)cc(OC)c1OC
→ 15% | -2% | 2% | ? | · | · | ? | 1%
CCOC(=O)c1cnc2c(ccc3ccccc32)c1Nc1cccc(Cl)c1
→ -19% | · | · | · | -0.9% | -4% | 18%[46.1 µM] | ·
CCc1ccc(-c2nc3ccc(Br)cc3c(C(=O)O)c2C)s1
→ -3%&-15% | 24% | 1% | ? | -9.1% | -5% | ? | 2%
O=c1cc(-c2ccccc2)[nH]c2ccc(F)cc12
→ 5% | -5% | 9% | -45% | 0.1%&1.3% | -2%&-4% | ? | 5%
COc1ccc(S(=O)(=O)c2ccc(OC)c(OC)c2)cc1OC
→ 2% | 14% | -4% | 3% | 5.5% | 2% | -4% | -9%
O=C(c1ccccc1)N(Nc1ccccc1)c1ccccc1
→ 3% | 5% | 0% | 0%[46.1 µM] | · | · | -3%[46.1 µM] | ·
CCOC(=O)CCn1c(=O)c2c(nc(Br)n2Cc2ccccc2)n(C)c1=O
→ -32% | 20% | 17% | 8% | 0.2% | -13% | 3% | -3%
COc1ccccc1CNC(=O)CC(c1ccc(F)cc1)N1Cc2ccccc2C1=O (stereo unspecified)
→ 20% | · | · | · | -4.2% | -3% | -27%[46.1 µM] | ·
CC(=O)C1=C(O)C(=O)N(CCCn2ccnc2)C1c1ccc(Br)cc1 (stereo unspecified)
→ -3% | 9% | 0% | ? | · | · | 15%[46.1 µM] | 1%
O=C(Cc1ccc(Cl)cc1Cl)OCC(=O)c1ccc[nH]1
→ 27% | -13% | -9% | ? | -5.6% | -7% | 12% | -13%
O=C1CN(C(=O)COC(=O)c2cc(S(=O)(=O)N3CCOCC3)ccc2Cl)c2ccccc2N1
→ 15% | -16% | 2% | -16% | · | · | 6% | -7%
CN(C(=O)c1ccccc1Cl)c1ccccc1
→ 9% | 6% | 2% | 13% | 2.2% | -4% | 0% | 3%
CC(=O)C1=C(c2ccc(C)cc2)N(C(C)=O)n2c(nnc2-c2ccccc2)S1
→ -20% | · | · | · | -0.5% | 3% | -7%[46.1 µM] | ·
O=C(CSc1nc2[nH]ncc2c(=O)[nH]1)Nc1cccc([N+](=O)[O-])c1
→ -3% | -10% | 1% | -6%[46.1 µM] | · | · | 3% | ·
Cc1cccc(NC(=O)COc2cccc3c2CCN(C)C3=O)c1
→ ? | 0% | -7% | ? | · | · | 0% | ·
NC(=O)CC(NC(=O)Cc1ccc(Br)cc1)c1ccc(NC2CCCCCC2)c([N+](=O)[O-])c1 (stereo unspecified)
→ 0% | -4% | 0% | · | · | · | · | 0%
Cc1cc(C)nc(N2CCN(C(=O)c3ccc(S(=O)(=O)N4CCCCCC4)cc3)CC2)n1
→ ? | -6% | -3% | 2%[46.1 µM] | · | · | 29% | 6%
Cc1cccc(N2C(=O)C(CC(=O)Nc3ccc(F)cc3)N(C3CCCC3)C2=O)c1 (stereo unspecified)
→ 5% | · | · | · | -3.6% | 9% | -13%[46.1 µM] | ·
CCCCN(CC)CCCNC(=O)c1cn(C)c2ccc(S(=O)(=O)N(C)C3CCCCC3)cc2c1=O
→ 38%&42%[activator] | -13% | -4% | 16%&16%[46.1 µM] | -4.0% | -20% | ? | -1%
Cc1ccc(S(=O)(=O)N(C)CC(=O)O/N=C(\N)c2ccc([N+](=O)[O-])cc2)cc1
→ ? | 4% | 5% | ? | -2.6% | -5% | 5% | -18%
Cc1cc(OC(C)C(=O)N2CCC(c3nc4ccccc4o3)CC2)ccc1Cl (stereo unspecified)
→ 0% | · | · | -4%[46.1 µM] | -8.6% | ? | -15%[46.1 µM] | ·
CCOc1ccc(S(=O)(=O)NCc2cccnc2)cc1C
→ 12% | 1% | 0% | 7%[46.1 µM] | · | · | 5%[46.1 µM] | -2%
COc1cccc(C(c2nnnn2Cc2ccco2)N2CCN(c3cccc(C)c3C)CC2)c1OC (stereo unspecified)
→ 9% | 16% | -8% | ? | 1.9% | 8% | ? | 13%
Cc1ccc(C)c(NC(=O)CN(C)C(=O)c2cccc(-n3cccc3)c2)c1
→ -24% | -12% | 1% | 12% | · | · | 5% | ·
CC(NC(=O)c1ccnc(C(C)(C)C)c1)c1ccccc1 (stereo unspecified)
→ -25% | 3% | 0% | 22% | 1.2% | 3% | -17% | -10%
Cc1c(CCC(=O)O)c(=O)oc2c(C)c(OCc3ccccc3Cl)ccc12
→ ? | -14% | 2% | -11%[46.1 µM] | · | · | -20%[46.1 µM] | -5%
O=C(Nc1cc([N+](=O)[O-])ccc1F)c1ccc2c(c1)OCCO2
→ 21% | -7% | 0% | 10%[46.1 µM] | · | · | -2% | ·
O=C(NCCCn1ccnc1)/C(=C\c1ccccc1Cl)NC(=O)c1ccccc1
→ 12% | 2% | -4% | 19% | · | · | -3% | -1%

Molecules from the list above containing fluorine, in the order listed:
Results follow in this order: 2A StopGo | RE007 growth inh | SARS PLpro yeast | Marburg entry inh | Cruzain inh Det | Cruzain noTriton | Lassa entry inh | NS1 inh
COc1cc(CN2CCN(Cc3ccccc3C(F)(F)F)CC2)cc(OC)c1OC
→ 15% | -2% | 2% | ? | · | · | ? | 1%
O=c1cc(-c2ccccc2)[nH]c2ccc(F)cc12
→ 5% | -5% | 9% | -45% | 0.1%&1.3% | -2%&-4% | ? | 5%
COc1ccccc1CNC(=O)CC(c1ccc(F)cc1)N1Cc2ccccc2C1=O (stereo unspecified)
→ 20% | · | · | · | -4.2% | -3% | -27%[46.1 µM] | ·
Cc1cccc(N2C(=O)C(CC(=O)Nc3ccc(F)cc3)N(C3CCCC3)C2=O)c1 (stereo unspecified)
→ 5% | · | · | · | -3.6% | 9% | -13%[46.1 µM] | ·
O=C(Nc1cc([N+](=O)[O-])ccc1F)c1ccc2c(c1)OCCO2
→ 21% | -7% | 0% | 10%[46.1 µM] | · | · | -2% | ·

(continued)
Results follow in this order: 2A StopGo | RE007 growth inh | SARS PLpro yeast | Marburg entry inh | Cruzain inh Det | Cruzain noTriton | Lassa entry inh | NS1 inh
COCCCN(C)C1CCN(C(=O)Nc2ccc(F)cc2)CC1
→ -24% | -10% | 3% | · | 1.4% | -1% | · | -7%
CCOc1ccc(NC(=O)NC(C)c2c(-n3cccc3)sc(C)c2C)cc1 (stereo unspecified)
→ 16% | · | · | ? | -6.5% | -1% | · | ·
CC(=O)N1CCN(C(=S)NC(=O)c2ccc(F)cc2)CC1
→ 13% | 1% | -2% | -3% | · | · | 16% | ·
CC(Oc1ccc(Br)cc1)C(=O)Nc1cc(Cl)ccc1N1CCN(C)CC1 (stereo unspecified)
→ -10% | 3% | -2% | 8.9µM* | · | · | ? | ·
CNC(C)C#Cc1ccc2sc3cccc(OC)c3c(=O)c2c1 (stereo unspecified)
→ 11% | ? | -9% | · | · | · | · | 9%
CC(C)(C)NC(=O)NC(=O)COC(=O)Cc1c(Cl)cccc1Cl
→ -10% | 2% | 2% | ? | · | · | -11%[46.1 µM] | ·
COc1ccc(CC(=O)Nc2cccc(/C(C)=N/NC(=O)c3cccc([N+](=O)[O-])c3)c2)cc1
→ -24% | -11% | 6% | ? | 2.3% | ? | 11µM* | 0%
COc1cccc(CNC(=O)C(=O)Nc2c3c(nn2-c2ccccc2)CSC3)c1
→ -11% | · | · | · | 0.0% | ? | 1%[46.1 µM] | ·
COCCn1c(=O)[nH]c(=O)c2cc(C(=O)c3cc(Cl)ccc3O)cnc21
→ -9% | 11% | 1% | -26%[46.1 µM] | · | · | ? | ·
COc1ccc2c(c1)c(=O)oc1cc3occ(C(C)(C)C)c3cc12
→ -29% | -1% | 1% | 18% | 4.3% | ? | -13% | -1%
CCn1c(Cc2cccn2C)nnc1SCC(=O)c1ccc(C)cc1
→ 0% | -22% | -7% | ? | 1.3% | -8% | -7% | -4%
Cn1c(NC(=O)c2ccc(Cl)cc2)c(-c2ccccn2)c(=O)c2ccccc21
→ -17% | 10% | 1% | -1% | 1.8% | 7% | 1% | -7%
CCc1cccc(CC)c1NC(=O)Cn1nnc2sc3c(c2c1=O)CCCC3
→ 0% | · | · | 24%[46.1 µM] | 0.2% | 14% | 2%[46.1 µM] | ·
CCCCCCC(O)(c1ccccc1)C(CN1CCOCC1)c1ccccc1 (stereo unspecified)
→ ? | -4% | -1% | · | · | · | · | 0%
CCC[N+](CC#Cc1ccccc1)(CCC)CC(=O)OC
→ -14% | 1% | -12% | 1% | -2.2% | 2% | 14% | 14%
O=C(Cn1c(COc2ccc(Cl)cc2)nc2ccccc21)NCC(F)(F)F
→ 11% | 6% | ? | 6% | 2.7% | 22% | 0% | -6%
COc1cc(C)ccc1OCCCOc1cc(C)ccc1Cl
→ -9% | ? | · | 0% | · | · | 24% | ·
CC(=O)Nc1sc(C)c(C)c1C(=O)OCC(=O)Nc1cc(S(=O)(=O)N2CCCCC2)ccc1Cl
→ -17% | -3% | -3% | -8% | -5.1% | 25µM* | 5% | -4%
CCOC(=O)CC1C(=O)NCCN1Cc1cccc(C(F)(F)F)c1 (stereo unspecified)
→ -16% | -2% | 3% | · | -1.6% | 2% | · | 7%
CCc1ccc(-n2nc(C)c3c2NC(=O)CSC3c2ccc(OC)cc2OC)cc1 (stereo unspecified)
→ -23% | · | · | ? | -12% | -12% | -18%[46.1 µM] | ·
